Compound activity deposited in PubChem BioAssay by Johns Hopkins Ion Channel Center.
KCNQ2 pot: enhances the rat KCNQ2 potassium channel | 0.54% of 310,000 active | CHO-K1 KCNQ2, FluxOR thallium flux fluorescence; active compounds read high | B-score at 10 µM | O88943;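 active = fluorescence ratio B-score at least 3 SD of library B-scores, with initial fluorescence B-score within 3 SD, cut at about 5.3 in these data; same plate scores as AID 2156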;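 also: B-score of peak minus minimum over baseline fluorescence ratio after K+ and Tl+ stimulus; positive B-score means potentiation of KCNQ2 with more thallium influx and brighter signal; only the inactives scoring about 0 or higher are listed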
Target sequence (O88943 whole entry, looked up): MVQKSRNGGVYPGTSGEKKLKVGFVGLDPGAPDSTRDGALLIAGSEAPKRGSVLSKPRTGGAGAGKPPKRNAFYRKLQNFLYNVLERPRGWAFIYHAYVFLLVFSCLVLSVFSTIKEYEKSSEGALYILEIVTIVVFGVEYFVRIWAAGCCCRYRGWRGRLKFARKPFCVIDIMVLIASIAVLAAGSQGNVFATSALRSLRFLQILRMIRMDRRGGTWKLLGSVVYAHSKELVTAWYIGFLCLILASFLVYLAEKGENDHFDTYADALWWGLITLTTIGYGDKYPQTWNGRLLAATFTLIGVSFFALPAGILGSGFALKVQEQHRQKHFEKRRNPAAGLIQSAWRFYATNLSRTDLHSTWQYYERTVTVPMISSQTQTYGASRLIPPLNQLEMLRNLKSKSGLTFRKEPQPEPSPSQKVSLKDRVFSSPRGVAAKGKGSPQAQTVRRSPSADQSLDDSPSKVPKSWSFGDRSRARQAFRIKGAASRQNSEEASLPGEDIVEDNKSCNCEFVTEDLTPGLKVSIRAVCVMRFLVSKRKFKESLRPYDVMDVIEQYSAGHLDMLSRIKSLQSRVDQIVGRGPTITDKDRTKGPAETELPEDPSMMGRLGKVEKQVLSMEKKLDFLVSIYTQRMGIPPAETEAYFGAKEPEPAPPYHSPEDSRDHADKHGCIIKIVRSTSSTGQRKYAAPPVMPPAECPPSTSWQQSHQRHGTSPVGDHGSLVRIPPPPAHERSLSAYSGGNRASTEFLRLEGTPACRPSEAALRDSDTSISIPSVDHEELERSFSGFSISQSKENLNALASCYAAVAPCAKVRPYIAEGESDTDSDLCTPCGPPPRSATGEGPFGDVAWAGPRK
KCNQ2 pot baseline: recorded beside KCNQ2 pot, whose call it bears; B-score; compound at 10 µM; measured here: initial fluorescence intensity artifact check;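 brightness before thallium and not channel activity; 0 = typical well and far values either way flag optical interference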
* marks the source's active call; other numbers are inactive results. This is a subset, so the mix of outcomes need not match the whole.

KCNQ2 pot	KCNQ2 pot baseline	Molecule
0.35	-1.53	O=[N+]([O-])c1ccccc1S(=O)(=O)Nc1ccn(Cc2c(F)cccc2Cl)n1
0.48	0.01	Cc1ccc(NC(=O)NC(=O)CN2CCN(c3ccc(O)cc3)CC2)c(C)c1
0.29	-0.7	Cc1ccccc1CS(=O)(=O)Cc1ccc(C(=O)NCCc2ccccc2)o1
1.54	-0.03	Oc1ccc(-c2cn3ccccc3n2)cc1
0.01	-1.6	O=C(CNC(=O)c1ccc(S(=O)(=O)N2CCCCC2)cc1)N/N=C/c1ccco1
0.03	-0.89	c1ccc(Cn2nnc3ccccc32)cc1
1.55	-0.13	CC1(C)[C@@H](O)CC[C@]2(C)[C@H]3C(=O)C=C4[C@@H]5C[C@@](C)(C(=O)O)CC[C@]5(C)CC[C@@]4(C)[C@]3(C)CC[C@@H]12
0.95	-0.08	N#CC1=C(N)NC(SCC(=O)O)=C(C#N)C12CCCC2
0.82	0.62	Cc1ccc(S(N)(=O)=O)cc1NC(=O)c1ccc2c3c(cccc13)CC2
0.17	0.53	O=C(Nc1nnc(S(=O)(=O)Nc2ccccc2)s1)c1ccccc1Cl
0.33	0.45	CC(=O)Nc1ccc(S(=O)(=O)NC2CCSc3ccccc32)cc1 (stereo unspecified)
0.34	1.58	COC(=O)c1ccc(C(=O)OC)c(NC(=O)CSCc2ccc(Cl)cc2)c1
2.7	1.37	CCOc1cccc(-c2c(C(=O)N/N=C/c3ccc(Br)cc3)nnn2-c2nonc2N)c1
0.66	-0.69	N#C/C(=N/Nc1ccc([N+](=O)[O-])cc1)C(=N)N1CCCCC1
0.09	-0.71	O=C(CSc1n[nH]c(Cc2ccccc2)n1)Nc1ccccc1Br
0.89	-0.78	O=C(Nc1ccc2c(c1)OCO2)N1CCN(S(=O)(=O)c2ccc(Cl)cc2)CC1
2.62	-0.32	COCCN1C(=O)c2oc3ccccc3c(=O)c2C1c1ccc(O)c(OC)c1 (stereo unspecified)
1.01	-1.33	O=C(NCc1cccnc1)c1cc(-c2ccccc2)on1
0.73	-1.59	O=S(=O)(NC1CC2CCC1C2)c1ccc(Cl)cc1 (stereo unspecified)
0.38	1.3	CC(C)CC(=O)Nc1ccc2c(c1)nc(CCN1CCCCC1)n2C
0.51	0.19	O=C(NCCC1CCCCN1S(=O)(=O)c1ccccc1)C(=O)NC1CCCC1 (stereo unspecified)
0.02	-0.51	Cc1ccc(C(=O)NNC(=O)CSc2nnc(-c3ccccc3)n2Cc2ccccc2)cc1
0.94	-0.78	CC(=O)N(Cc1ccccc1)c1c(N)nc(N)[nH]c1=O
4.26	-0.08	O=C(Nc1cccc(Cl)c1)NC1CC2CCC1C2 (stereo unspecified)
0.22	0.07	CCOC(=O)c1c(/N=C/c2ccc(C)cc2O)sc2c1CCN(C)C2
0.59	0.08	CC(C)OCCCNC(=O)C1CCC(=O)N1C1CCCC1 (stereo unspecified)
2.66	-0.07	COc1ccc(Nc2nc(N)nc(SCc3nnc(C)s3)n2)cc1
0.24	-0.7	Cc1ccccc1NS(=O)(=O)c1ccc(F)cc1
1.04	-2.01	COc1cc(-c2nn3c(Cc4ccccc4)nnc3s2)cc(OC)c1OC
0.09	0.14	COc1cccc(NC(=O)CS(=O)(=O)c2cccc3nsnc23)c1

Full records, looked up by structure. Order of screens: KCNQ2 pot	KCNQ2 pot baseline
Cc1ccc(S(N)(=O)=O)cc1NC(=O)c1ccc2c3c(cccc13)CC2 reads 0.82	0.62
CC(C)OCCCNC(=O)C1CCC(=O)N1C1CCCC1 (stereo unspecified) reads 0.59	0.08
O=C(CNC(=O)c1ccc(S(=O)(=O)N2CCCCC2)cc1)N/N=C/c1ccco1 reads 0.01	-1.6
COC(=O)c1ccc(C(=O)OC)c(NC(=O)CSCc2ccc(Cl)cc2)c1 reads 0.34	1.58
O=C(NCc1cccnc1)c1cc(-c2ccccc2)on1 reads 1.01	-1.33

The list goes on.
KCNQ2 pot	KCNQ2 pot baseline	Molecule
0.82	-0.91	O=C(CCC(=O)Nc1nnc(C2CCCCC2)s1)Nc1ccc(F)cc1
4.12	-0.2	COc1cc(OC)c(NC(=O)CCc2ccccc2)cc1Cl
1.51	0.02	S=C(c1ccccc1)N1CCCC1
0.25	-1.82	COC(=O)c1c(C)[nH]c(C(=O)COC(=O)Cc2ccc3c(c2)OCCO3)c1C
0.04	-0.29	Cc1nnc(SCC(=O)NNC(=O)c2ccco2)n1-c1ccccc1
2.48	0.1	COc1ccc(C2C(C(N)=O)=C(C)Nc3nc(-c4ccccc4Cl)nn32)c(OC)c1 (stereo unspecified)
1.07	-0.25	COc1ccccc1CCC(=O)Nc1ccc2c(c1)CN(Cc1ccc(CO)o1)CC2
0.22	1.59	Cn1c(SCC(=O)Nc2ccc(F)cc2)nnc1-c1cccnc1
0.53	-0.54	COc1ccc(N(CC(=O)NC2CCCCC2)C(=O)CNC(=O)c2cccs2)cc1OC
0.54	-0.05	COc1ccccc1C(=O)COC(=O)CSC(C)C(=O)Nc1cc(C)on1 (stereo unspecified)
0.31	0.13	COC(=O)C1=C(C)N=C2SCCC(=O)N2C1c1ccc(C(=O)OC)cc1 (stereo unspecified)
0.67	0.81	Cc1ccc(CNc2cc(-c3nn4c(C)nnc4s3)ccc2C)s1
0.59	-2.21	Cc1nc2nc[nH]n2c(=O)c1NS(=O)(=O)c1ccc(F)cc1
0.35	-0.84	Cc1ccccc1C(=O)Nc1ccccc1C(=O)N/N=C\c1ccco1
0.09	1.49	COC(=O)[C@@]1(Cc2ccc(F)cc2)[C@H]2c3cc(C(=O)N(C)C)n(Cc4ccc(OC)c(OC)c4)c3C[C@H]2CN1C(=O)c1ccccc1
0.31	0.86	O=C(NCc1ccco1)C(c1cccnc1)N(C(=O)Cn1nnc2ccccc21)c1ccccc1 (stereo unspecified)
2.24	-0.63	CCN(CC)c1ccc(/C=N/NC(=O)c2ccc3nc[nH]c3c2)cc1
0.4	0.14	Cc1ccccc1-c1nnn(CC(=O)Nc2ccc3c(c2)OCCO3)n1
0.06	2.24	CC(NC(=O)c1ccccc1)C(c1cccs1)N1CCOCC1 (stereo unspecified)
1.28	-1.14	c1ccc(-c2nccc(-c3ccco3)n2)nc1
0.12	-0.82	Cc1cc(SCCC(=O)O)nc2c(C)cccc12
1.56	1.21	O=C(NN1CCOCC1)c1cccc2ccccc12
1.39	-0.66	CCCc1c(C(=O)NNc2ccccc2OC)cnn1-c1ccccc1
1.08	-1.1	COc1cc(/C=C2/C(=N)N3N=C(CC(=O)N4CCOCC4)SC3=NC2=O)ccc1OCc1ccccc1F
2.6	-2.03	O=C(Nc1cccc(NC(=O)c2ccco2)c1)c1ccc2c(c1)OCCO2
0.58	-0.98	CCOC(=O)N1CCC(NC(=O)c2cc3sccc3n2CC)CC1
0.23	0.81	COc1cc(NC(=O)c2ccco2)ccc1NC(=O)c1ccccc1Cl
0.93	1.12	CCOc1ccc(CN(CCO)CCO)cc1C(=O)OC
1.28	-0.29	O=C(NCCC1=CCCCC1)C1CCCN(S(=O)(=O)c2cccnc2)C1 (stereo unspecified)
0.59	-1.66	COC(=O)c1sc(NC(=O)c2c(F)cccc2F)c(C#N)c1C

Sorted by value in KCNQ2 pot (low to high): 5 from the list above.
KCNQ2 pot	KCNQ2 pot baseline	Molecule
0.22	1.59	Cn1c(SCC(=O)Nc2ccc(F)cc2)nnc1-c1cccnc1
0.59	-2.21	Cc1nc2nc[nH]n2c(=O)c1NS(=O)(=O)c1ccc(F)cc1
1.08	-1.1	COc1cc(/C=C2/C(=N)N3N=C(CC(=O)N4CCOCC4)SC3=NC2=O)ccc1OCc1ccccc1F
1.28	-0.29	O=C(NCCC1=CCCCC1)C1CCCN(S(=O)(=O)c2cccnc2)C1 (stereo unspecified)
2.24	-0.63	CCN(CC)c1ccc(/C=N/NC(=O)c2ccc3nc[nH]c3c2)cc1

Next part:
KCNQ2 pot	KCNQ2 pot baseline	Molecule
0.07	-1.31	O=C(CC1S/C(=N/N=C/C=C/c2ccccc2)NC1=O)Nc1ccc(C(=O)O)cc1 (stereo unspecified)
19.2*	-0.1*	O=c1ccc(N=Nc2ccccc2)ccc1O
0.53	-0.17	Cc1cccc(NC(=O)c2ccc([N+](=O)[O-])s2)c1C
1.35	-0.84	COc1ccc(S(=O)(=O)NCCc2c[nH]c3ccccc23)cc1OC
1.99	0.75	Cc1cccc(C(=O)OCC(=O)N2CCCC2=O)c1[N+](=O)[O-]
0.13	-0.2	Cc1cc(C)cc(NC(=O)c2ccc([N+](=O)[O-])o2)c1
1.41	-3.02	O=C(CCNC(=O)c1ccc(Br)cc1)NCc1cccnc1
0.43	1.11	CC(=O)c1ccc(N2CCN(C(=O)CCN3C(=S)NC(C)(C)CC3C)CC2)cc1 (stereo unspecified)
0.7	-0.44	O=C(NCc1ccc2c(c1)OCO2)C1CCCN1C(=O)Nc1ccc(F)cc1 (stereo unspecified)
0.99	0.38	O=C(CN1CCCCC1)N/N=C/c1ccc(Cl)cc1Cl
0.96	0.2	O=C(/C=C/c1ccccc1)Nc1ccc(CN2CCOCC2)cc1
0.04	0.85	CC(C)NC(=S)NNc1ncnc2sc3c(c12)CC(C)(C)OC3
1.03	0.47	Cc1cc(C)c(S(=O)(=O)NCC2CCC(C(=O)NCc3ccc4c(c3)OCO4)CC2)c(C)c1 (stereo unspecified)
0.42	-0.21	CC(=O)c1c(C)n(-c2ccc(C)cc2)c2ccc(O)cc12
0.07	0.01	COCCNC(=O)C1CC(c2ccc([N+](=O)[O-])cc2)=NO1 (stereo unspecified)
1.32	0.54	CC1CCc2nc(NC(=O)c3ccc(N4C(=O)CCC4=O)cc3)sc2C1 (stereo unspecified)
0.3	-1.29	CCCCC1S/C(=N/N=C/c2ccco2)NC1=O (stereo unspecified)
0.01	-0.87	O=C(Nc1ccc(Cl)cc1)c1ccc(-n2cccn2)c([N+](=O)[O-])c1
0.01	1.69	C=C1c2cc(C)ccc2NC(=O)N1c1ccc(C)cc1
0.09	0.38	CCOc1ccc(NC(=S)N2CCN(c3ccc(N4CCOCC4)nn3)CC2)cc1
0.47	-0.66	CCN(CC)C(=O)C1CCCN(Cc2ccc(N(C)C)cc2)C1 (stereo unspecified)
0.36	1.38	COc1ccc(CC(=O)Oc2ccccc2C)cc1S(=O)(=O)N1CCOCC1
1.5	0.11	CCN(C(=O)CSc1nnc(C)n1-c1ccccc1)C1CCS(=O)(=O)C1 (stereo unspecified)
1.95	-1.18	COc1cccc(/C=N/NC(=O)c2nnn(-c3nonc3N)c2C(C)C)c1
0.76	-1.33	COC(=O)N/N=C(\C)c1ccc2ccccc2c1OC(F)F
2.12	-0.87	COc1cccc(-c2nn(C)c3sc(C(=O)NCc4ccc(C)cc4)cc23)c1
0.46	-1.12	C=CCn1c(SCC(=O)NC(=O)c2cccn2C)nc2ccccc2c1=O
1.85	-0.18	CCS(=O)(=O)Nc1cc(-c2nc3cccnc3s2)ccc1C
0.57	0.01	N#CCC(=O)Nc1ncc(Cc2ccccc2Cl)s1
0.16	1.5	N/C(=N\OC(=O)c1ccc2c(c1)OCO2)c1ccncc1

Next part.
KCNQ2 pot	KCNQ2 pot baseline	Molecule
0.24	-1.24	CCOC(=O)C1(Cc2cccc(OC)c2)CCCN(S(=O)(=O)CC)C1 (stereo unspecified)
1.58	-0.03	COc1ccc(CC(=O)NCc2nn(-c3ccccc3)nc2C)cc1OC
0.72	0.05	O=C(NCCNC(=O)c1ccccc1[N+](=O)[O-])c1ccccc1[N+](=O)[O-]
0.23	0.88	COc1ccc(S(=O)(=O)N(C)C)cc1NC(=O)CCNC(=O)c1ccco1
0.43	-2.59	CCOc1cc(C(=O)N=c2sccn2C)ccc1OC(F)F
2.31	0.03	COC(CNC(=O)c1ccc(N2CCc3ccccc32)c([N+](=O)[O-])c1)OC
0.04	-0.72	O=C(CSC1=NS(=O)(=O)c2cc(F)ccc2N1)Nc1ccc(F)cc1
0.07	-0.56	Cc1nc2nc(C)c(CCC(=O)NC(C)c3ccc4c(c3)OCCO4)c(C)n2n1 (stereo unspecified)
0.05	1.21	Cc1nnc(SCC(C)C)[nH]c1=O
2.28	0.05	CCN1C(=O)/C(=c2\s/c(=C3\Sc4ccccc4N3C)c(=O)n2C)N(C)C1=S
0.4	2.29	COc1cc(NC(=O)COc2ccc(-n3ccnc3)cc2)cc(OC)c1
1.27	0.01	COc1ccc(C(=O)NCc2ccccn2)cc1
1.22	0.56	COc1ccccc1-n1nnnc1SCC(=O)Nc1oc(C)c2c(C)n[nH]c(=O)c12
1.92	-0.83	Cn1c(=O)c2c(ncn2CC(O)CNc2ccc(Cl)cc2)n(C)c1=O (stereo unspecified)
0.94	0.22	O=C(c1ccc(N2CCCS2(=O)=O)cc1)N1CCN(c2ccc(F)cc2)CC1
0.27	0.26	CCC(=O)Nc1sc2c(c1C(N)=O)CCN(C(C)=O)C2
0.02	-0.32	O=C(O)c1ccc(/C=N/Nc2cccc(C(F)(F)F)c2)cc1
3.25	1.25	Cc1ccc(-c2csc3ncnc(SCc4ccc(C(=O)O)cc4)c23)cc1
0.44	0.79	CC(C)S(=O)(=O)c1csc(C(=O)NN)c1Cl
0.05	-0.55	CCCN1Cc2cccc(C(=O)N3CCN(c4cc(Cl)ccc4C)CC3)c2C1=O
0.18	1.68	COCCn1nnnc1C(c1ccccc1OC)N1CCN(c2ccccc2)CC1 (stereo unspecified)
1.32	3.53	Cc1ccc(C(=O)Nc2ccc(O)cc2C(=O)O)cc1
0.66	-0.76	COCCn1c(Cc2ccccc2)nnc1SCC(=O)N1CCOCC1
0.34	1.45	CCN1CCN(c2nc(Nc3cccc(F)c3)nc(N)c2[N+](=O)[O-])CC1
0.22	1.98	Clc1ccccc1-c1ccc(/C=N/n2cnnc2)o1
1.57	-0.08	Cc1noc(C)c1S(=O)(=O)NCC(=O)O
